Source: PubChem (National Center for Advancing Translational Sciences (NCATS))
Menin MLL FP FL: menin-MLL binding inhibition, fluorescein peptide; 290,000 tested, under 10 active; FP activity change, % at 61.4 µM; Fluorescence polarization, fluorescein-MLL peptide displacement from menin; inconclusive = falling polarisation curve, or a change in total fluorescence; inactive = total fluorescence flat and polarisation flat or rising; no compound was filed as active; the % refers to the polarisation; negative = inhibition;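 also: % of control where 0% means no effect; inhibitors lower the polarisation; unlabelled MLL peptide was the positive control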
TRPV1 PAM: potentiators of human vanilloid receptor 1 (TRPV1); Q8NER1; TRPV1-expressing cells, Fluo-8 calcium influx, capsaicin EC20 potentiation; host cell line not named in the record; control for the full effect not named in the record; potentiation, % at 8.33 µM; 320,000 tested, 0.02% active; active means potentiation above 80%; inconclusive means 30% to 80%; inactive means below 30%; also: 0% is about no effect
Target sequence (Q8NER1 whole entry, looked up): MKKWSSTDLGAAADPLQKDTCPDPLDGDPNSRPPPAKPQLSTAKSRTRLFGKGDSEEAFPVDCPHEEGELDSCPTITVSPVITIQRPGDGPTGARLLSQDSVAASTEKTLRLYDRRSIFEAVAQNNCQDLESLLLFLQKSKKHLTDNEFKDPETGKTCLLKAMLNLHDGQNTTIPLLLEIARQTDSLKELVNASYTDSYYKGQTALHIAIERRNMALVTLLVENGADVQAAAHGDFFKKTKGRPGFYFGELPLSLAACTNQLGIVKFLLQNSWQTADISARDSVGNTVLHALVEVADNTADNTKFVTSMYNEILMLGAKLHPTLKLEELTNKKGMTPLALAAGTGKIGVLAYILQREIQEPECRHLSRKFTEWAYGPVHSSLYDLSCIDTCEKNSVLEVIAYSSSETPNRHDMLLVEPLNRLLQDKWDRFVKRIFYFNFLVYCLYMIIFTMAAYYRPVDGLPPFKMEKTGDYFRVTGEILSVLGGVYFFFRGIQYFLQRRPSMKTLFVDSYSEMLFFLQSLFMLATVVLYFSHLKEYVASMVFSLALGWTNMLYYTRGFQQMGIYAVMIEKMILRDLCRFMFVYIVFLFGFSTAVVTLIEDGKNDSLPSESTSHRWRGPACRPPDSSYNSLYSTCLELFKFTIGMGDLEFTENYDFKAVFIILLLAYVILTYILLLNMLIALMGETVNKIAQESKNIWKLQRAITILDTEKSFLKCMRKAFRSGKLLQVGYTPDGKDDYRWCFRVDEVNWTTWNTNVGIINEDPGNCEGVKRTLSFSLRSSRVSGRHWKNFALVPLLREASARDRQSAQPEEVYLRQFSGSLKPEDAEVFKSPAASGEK
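Cells expressing TRPV1 were dye-loaded with Fluo-8 and read kinetically: 10 s baseline, 3 min after compound (agonist portion), then 2 min after EC20 capsaicin (allosteric enhancer portion). Calcium-bound dye fluorescence at 480/520 nm.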
PINK1 modulator: modulators of PINK1 expression | Potency, µM (series often up to 76.6 µM), for the others: top-dose activation (PINK1 increase), usual class: activators | 410,000 tested, 0.2% active | PINK1 immunofluorescence, high-content cytometry, 24 h; active = well fitted activation curve with a large enough effect; inconclusive = small, poorly fitted or top-dose-only effect; inactive = flat fitted curve, though single readings scatter; cell line not stated here;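 also: potency is read from the fitted curve at half-maximal effect; % of control where 0% means no effect; nearly all actives have a fitted effect of over 65% in size; a mitochondrial uncoupler was the plate control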
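Stable cell line, 250 cells/well, 12 h attachment; compounds pinned at 5 concentrations, 24 h; CCCP control. Fixed with nuclear dye, primary antibodies 12 h at 10 degrees C, secondary plus cell stain; laser-scanning cytometer read.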
Sfp inh: inhibitors of Bacillus subtilis Sfp phosphopantetheinyl transferase. Q9F4F7. 310,000 tested, 3.5% active. Potency, µM, for the others: max response, negative = inhibition, hits mostly inhibitors. Biochemical Sfp PPTase activity, qHTS; active = well fitted inhibition curve with a large enough effect; inconclusive = small, poorly fitted or top-dose-only effect, or another doubt; inactive = no such curve, though single readings can be large or run the other way;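 also: the enzyme is Sfp with the accession as filed and its product quenches rhodamine fluorescence; potency is read from the fitted curve at half-maximal effect; 0% = enzyme reaction without inhibitor and -100% = no enzyme wells; top concentration of the series not given in the record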
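Fluorescence-quenching assay with 15 nM Sfp, 5 uM rhodamine-CoA and 12.5 uM BHQ-2-labelled ybbR peptide in pH 7.6 Hepes/MgCl2 buffer. Enzyme was pre-incubated with compound for 15 min at room temperature. Rate was taken from the 30-min fluorescence change (525/598 nm).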
TRPML1 ag: activates the human TRPML1 channel | Q9GZU1 | AID 624414 | 410,000 tested, 0.12% active | TRPML1-expressing cells, Ca2+ dye fluorescence, FDSS; host cell line not named in the record; reference of the full effect not given here | activation, % (test concentration not listed); in the data active = activation above about 50%; inconclusive = about 30% to 50%; inactive = below about 30%; also: 0% is about no effect; the text of the record puts the active cut at 80%
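Agonist activity was taken from a 110 s kinetic Ca2+ dye read on the FDSS after pinning compounds onto TRPML1-DL cells. The cells were seeded at 1,500/well with Tet inducer, incubated about 16 h, then dye-loaded at room temperature.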
TRPML1 blocker: inhibitors of human TRPML1 channel; Q9GZU1; TRPML1-inducible cells, Ca2+ dye fluorescence, FDSS; stronger effect = lower value; inhibition of EC80 agonist-evoked calcium signal; activity change, negative = inhibition, % (no concentration beside the values); 390,000 tested, 0.02% active; AID 624415; in the data active means activity change below about -50%; inconclusive means about -30% to -50%; inactive means above about -30%;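 also: stimulus is agonist 54-4 at its EC80 concentration; % is scaled to controls: 0 for no effect and ±100 for the full control effect; compound concentration not given in the record; the text of the record puts the active cut at -80%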
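TRPML1-DL cells, Tet-induced overnight (~16 h, 37 °C) at 1,500 cells/well, were loaded with Ca8 no-wash dye plus quencher for 45-90 min at room temperature. Compounds were pinned during FDSS kinetic reading; agonist 54-4 at EC80 (4 uM final) then added.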
ClpP mod: qHTS Assay for Activators of ClpP; purified B. subtilis ClpP, FRET peptide cleavage, 20 min; Potency, µM (titrated, usually from 57.5 µM), without a hit: top-dose activity change, negative = active; 340,000 tested, 1.9% active; active = well fitted falling curve with a large enough effect; inconclusive = small, poorly fitted or top-dose-only effect; inactive = no such curve, though single readings can be large or run the other way; also: potency is read from the fitted curve at half-maximal effect; the source files actives as falling curves though it sought activators and does not explain the sign; nearly all actives have a fitted effect of over 65% in size; many hits overshoot -100%
Target sequence (P80244 whole entry, looked up): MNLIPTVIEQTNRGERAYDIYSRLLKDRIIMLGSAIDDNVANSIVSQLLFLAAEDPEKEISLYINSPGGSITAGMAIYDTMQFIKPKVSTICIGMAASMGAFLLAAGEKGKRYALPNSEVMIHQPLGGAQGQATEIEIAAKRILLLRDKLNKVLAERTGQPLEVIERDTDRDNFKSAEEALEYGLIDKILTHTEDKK
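FRET quenching reversal measured ClpP activation: 10 microg/mL B. subtilis ClpP at pH 8 with the FRET-FV decapeptide, read at 430 nm after 320 nm excitation. The 20-min minus 0-min signal was scaled between DMSO/no-enzyme wells and ADEP (5.8 microM final).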
* hit, by the source's call; ? = inconclusive; . = not tested or not shown; & = joins results of further samples; [ ] = another dose, or the depositor's remark.

SMILES | Menin MLL FP FL | TRPV1 PAM | PINK1 modulator | Sfp inh | TRPML1 ag | TRPML1 blocker | ClpP mod
COCCNC(=S)N(C)C1(c2ccccc2Cl)CCCCC1=O (centres undefined) | -1.9 | 2 | 0.7% | -18% | 0.2 | 8 | .
Cc1noc(C)c1CNCc1ccccc1 | -28 | 1 | 3.4% | -22% | -0.3 | 0 | -0.2%
COc1ccc(C(=O)Oc2cc(C)c(CN3CCOCC3)cc2C)cc1OC | -1.1 | -13 | -0.7% | 28% | 0.5 | -3 | -1.4%
COc1ccc(-c2noc(-c3cccc(Cl)c3)n2)cc1OC | 1.7 | 7 | 7.6% | 5% | -0.1 | -7 | 6.5%
CC(C)(C)OC(=O)N1CCC(CC2CC(c3cccc(Br)c3)=NO2)(C(=O)O)CC1 (centres undefined) | -2.0 | 0 | -1.5% | 13% | -0.5 | 6 | -0.2%
C#CCOCCOCCOCCNc1nc(N2CCN(C(=O)C([C@@H](C)O)n3cc([C@@H](N)CCCCN)nn3)CC2)nc(N2CCN(C(=O)[C@H](CCC(=O)O)n3cc([C@@H](N)[C@H](C)CC)nn3)CC2)n1 (some centres undefined) | . | . | 2.3% | . | -0.6 | -12 | -0.1%
CCOC(=O)C1(C)CCCN1C(=O)c1cccc(F)c1 (centres undefined) | . | . | -0.2% | . | -0.3 | . | 2.5%
CCOC(=O)c1cccc(NC(=O)C2Cc3ccccc3N2C(=O)c2ccccc2)c1 (centres undefined) | . | . | 6.3% | . | 4.3 | 5 | 7.2%
CCOC(=O)N1CCN(C(=O)/C=C/c2c(C)nn(-c3ccc(F)cc3)c2Cl)CC1 | -7.5 | -9 | 1.0% | 3% | 0.5 | -2 | -0.2%
COc1ccnc(Oc2ccc(F)cc2)c1C(=O)N/C=N/OCc1ccc(Cl)cc1Cl | 0.8 | 24 | . | 2% | -0.3 | -19 | -3.2%
Cc1ccc(CC2SC(N=C(N)N)=NC2=O)cc1 (centres undefined) | -5.5 | 30 | -1.5% | -4% | -1.2 | 8 | -3.0%
O=C(COc1ccccc1[N+](=O)[O-])NCC1COc2ccccc2O1 (centres undefined) | . | . | -0.5% | . | -0.5 | 7 | 1.9%
CCOC(=O)CSc1nc2sc3c(c2c(=O)n1-c1ccccc1)CCN(C(C)C)C3 | ? | -10 | 0.0% | -12% | 0.0 | 2 | .
OC(C#CCN1CCOCC1)c1cccs1 (centres undefined) | -1.8 | -8 | 2.2% | ? | 0.0 | 18 | 2.0%
C[C@H]1COC(=O)[C@@H](Cc2ccc(F)cc2)C/C=C\C[C@H](CC(=O)NCCO)C(=O)N1 | . | . | 1.2% | . | -0.6 | -1 | -0.3%
CC(C)(C)C(=O)NC(=S)Nc1cc(C(F)(F)F)ccc1N1CCOCC1 | 5.5 | -9 | 2.7% | -2% | 9.0 | -5 | 1.2%
COc1ccccc1OCCC(=O)OCC(=O)NCc1ccc(Cl)cc1 | 0.2 | 1 | 3.4% | -2% | 1.3 | -3 | .
N=C1C(c2nc(-c3ccc(F)cc3)cs2)=C(O)CN1CCCN1CCOCC1 | 6.5 | 3 | 0.4% | -2% | -0.5 | -17 | -16%
CC(C)(C)n1nnnc1C(c1cccs1)N1CCN(C/C=C/c2ccccc2)CC1 (centres undefined) | . | . | 1.1% | . | -0.5 | . | -3.0%
COc1cc(C(=O)Nc2cc(-c3ccccc3)[nH]n2)cc(OC)c1OC | 3.6 | ? | ? | 9% | -0.5 | -1 | 0.9%
CCCn1c(SCC(=O)c2cc(C)n(-c3ccc4c(c3)OCO4)c2C)n[nH]c1=O | 0.3 | -3 | 2.6% | -29% | 2.5 | -14 | 0.3%
CCC(C)NC(=O)COc1ccc(OCc2ccccc2)cc1 (centres undefined) | -1.8 | -11 | 1.0% | 18% | 4.4 | 37 | 4.1%
COc1ccc2sc(-c3ccccc3OC)c(-c3ccc4c(c3)OCCO4)c2c1 | . | 16 | 4.6% | . | 1.3 | -8 | ?
Cc1ccc(S(=O)(=O)c2cn(CC(=O)Nc3ccc(F)cc3)c3cc4c(cc3c2=O)OCO4)cc1 | . | . | 0.7% | . | 0.6 | 9 | -15%
CCOC(=O)Cn1nnnc1CN(Cc1ccc(OC)cc1)Cc1cc2cc(C)ccc2[nH]c1=O | 1.4 | -7 | -1.1%[38.3 µM] | 71µM* | -0.3 | -12 | -6.9%
CCc1cccc(NC(=O)COC(=O)c2c(-c3ccccc3)noc2C)c1 | . | . | -2.0% | . | 0.2 | 3 | 0.4%
CC(C)N(Cc1ccccc1)C(=O)COC(=O)/C=C/c1cnc2ccccc2n1 | 3.1 | 12 | 1.2% | 6% | -0.1 | 4 | .
CC(C)OC(=O)c1nnn(-c2nonc2N)c1CSc1ccccn1 | 6.8 | 20 | 0.1% | -22% | 0.1 | -8 | -1.8%
Cc1cccc(OCC(O)CN2CCNCC2)c1 (centres undefined) | -4.2 | -4 | 1.7% | -1% | 0.3 | -3 | .
COc1ccc(Cn2c(C)nnc2-c2cnn(C)c2N)cc1 | -2.0 | ? | -0.3% | 8% | -0.1 | 3 | -3.3%
COc1cc2c(cc1OC)C(=O)N(C)CC2 | ? | 12 | -0.2% | 23%&20% | . | . | -3.1%
O=C(Cc1c(F)cccc1Cl)N1CCOCC1 | 0.5 | 6 | -1.3% | 20% | 0.0 | 7 | 0.6%
Cc1cccc(OCC(=O)Nc2ncn[nH]2)c1C | 0.9 | 7 | 1.3% | 0% | -0.3 | 7 | 0.3%
O=C1NC[C@@H](CCCCN2C[C@H](Cc3ccccc3)N(CCc3ccccc3)C(=O)C2=O)N(CCc2ccccc2)C1=O | . | . | 1.1% | . | -0.3 | . | 1.1%
Cc1ncc(CO)c2cc(-c3nnc(Nc4ccc5c(c4)OCO5)s3)c(=O)oc12 | 4.9 | -1 | 0.5% | 15% | 0.9 | 2 | .
CCCc1nnc(SCC(=O)N2CCCC2)n1CC1CCCO1 (centres undefined) | 4.3 | -1 | -0.5% | 4% | -0.7 | 2 | 1.5%
O=C(CCC(=O)Nc1ccccc1)NNC(=O)c1cccs1 | 0.8 | 0 | 1.7%[38.3 µM] | 25% | 0.9 | -3 | 0.6%
CN[C@H]1C[C@@H](c2ccccc2)N(C(C)=O)C[C@H]1CO | . | . | 1.5% | . | 0.1 | . | -1.1%
CN1CCN(c2nc(-c3ccncc3)nc3ccccc23)CC1 | 3.1 | 3 | -2.4% | -5% | 0.2 | -2 | -2.3%
Cc1ccc(C)c(S(=O)(=O)c2nnn3c2nc(N2CCCCC2)c2sccc23)c1 | . | . | 0.5% | . | 2.6 | 26 | ?
Cc1ccc(C)c(N2CCN(S(=O)(=O)c3c(C)[nH]c(C)c3C(=O)N3CCCCC3)CC2)c1 | -0.5 | -7 | 4.0% | 12% | -0.4 | -3 | 1.7%
COc1ccc(-c2cc(C(F)(F)F)n3nc(-c4ccc(Cl)cc4)cc3n2)cc1OC | . | . | 0.2% | . | 0.7 | 1 | -24%
C=CC[C@H](CC(=O)NCCO)C(=O)NC[C@H](OC(=O)[C@@H](CC=C)Cc1ccc(F)cc1)c1ccccc1 | . | . | -0.4% | . | -0.1 | -9 | -1.2%
CC(=O)Nc1cccc(-c2ccnc3c2CC(C(=O)Nc2cccc(OC(F)(F)F)c2)O3)c1 (centres undefined) | . | . | 0.9% | . | -0.5 | 3 | -5.4%
Cc1ccccc1CN1C(=O)c2ccccc2S(=O)c2ccc(C(=O)NCc3ccco3)cc21 (centres undefined) | . | . | 1.5% | . | 0.3 | 2 | 0.0%

Three entries out of the list, ordered by number of heavy atoms, low to high:
SMILES | Menin MLL FP FL | TRPV1 PAM | PINK1 modulator | Sfp inh | TRPML1 ag | TRPML1 blocker | ClpP mod
Cc1ccc(C)c(S(=O)(=O)c2nnn3c2nc(N2CCCCC2)c2sccc23)c1 | . | . | 0.5% | . | 2.6 | 26 | ?
CC(=O)Nc1cccc(-c2ccnc3c2CC(C(=O)Nc2cccc(OC(F)(F)F)c2)O3)c1 (centres undefined) | . | . | 0.9% | . | -0.5 | 3 | -5.4%
C=CC[C@H](CC(=O)NCCO)C(=O)NC[C@H](OC(=O)[C@@H](CC=C)Cc1ccc(F)cc1)c1ccccc1 | . | . | -0.4% | . | -0.1 | -9 | -1.2%

New compounds follow:
SMILES | Menin MLL FP FL | TRPV1 PAM | PINK1 modulator | Sfp inh | TRPML1 ag | TRPML1 blocker | ClpP mod
C=C(C)CSc1nc2sc3c(c2c(=O)n1C1CCCCC1)CCN(C)C3 | 11 | -10 | 21% | -27% | -0.4 | -4 | 4.2%
CCCC(=O)Oc1ccc2c(C)cc(=O)oc2c1 | . | 0 | -1.7% | 11% | -0.4 | -2 | 420%
O=C(Nc1ccccc1)c1oc2ccccc2c1NC(=O)C1CC1 | 0.1 | -11 | 3.3% | 13% | 2.1 | -1 | 35%
CCOC(=O)c1sc(NC(=O)c2sc(C)nc2C)nc1C | -2.0 | -4 | 0.3% | 12% | 1.8 | -7 | .
O=C(CCCCCCCCC(=O)N/N=C/c1ccco1)N/N=C/c1ccco1 | 7.2 | 5 | 3.8% | 1% | -0.2 | -17 | .
CC1(C(=O)NS(=O)(=O)c2cccc(Cl)c2)CCN1C(=O)Cc1ccccc1 (centres undefined) | . | . | 0.1% | . | -0.9 | . | 1.4%
CCN(Cc1nc2ccccc2c(=O)[nH]1)Cc1nc2cc(OC)c(OC)cc2c(=O)[nH]1 | 2.4 | 0 | -0.4% | 20% | 0.7 | -16 | -6.4%
CCOc1ccc(/C=C/C(=O)Nc2ccc(N3CCOCC3)cc2)cc1 | 3.3 | -26 | 3.2% | -8% | 0.1 | 6 | -25%
Cc1nnc(NCc2n[nH]c(=O)c3ccccc23)c2ccccc12 | -1.3 | -13 | 3.8%[38.3 µM] | 24% | 0.0 | 15 | 1.4%
CCN(C(=O)c1cc2cccc(OC)c2oc1=O)c1ccccc1 | 0.7 | 13 | 2.4% | 15% | -0.7 | -7 | -5.6%
O=C(O)CCCCNS(=O)(=O)/C=C/c1ccccc1 | 4.0 | 4 | 1.8% | 12% | 0.7 | 7 | .
CCN(CC)CC(=O)Nc1sc(C)cc1C(=O)c1ccccc1 | -2.6 | 6 | 8.7% | 6% | 2.6 | 6 | -2.2%
COc1cccc(CNS(=O)(=O)c2c(C)[nH]c(C)c2C(=O)N2CCCCC2)c1 | 4.7 | 13 | -0.7% | 19% | -0.5 | 11 | 0.3%
